Bioassay records (PubChem BioAssay)
Mtb bLac sens = beta-lactam sensitization of Mtb H37Rv, H37Rv | M. tuberculosis H37Rv growth with meropenem, percent inhibition; hits of this screen are not shown here | inhibition, % at 25 µM | 0.27% of 330,000 active | AID 434955, 2010;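 active = about 74% or more and at least 40 points above the plate without the antibiotic, then above 30% in a dose series; inconclusive = first-round hits that could not be retested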;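 note: growth measured after seven days incubation then overnight dye step; 0% = bacteria only wells and 100% = bacteria with antibiotic; twin plates without the antibiotic show which effects depend on it; some results filed as inactive read as strong as hits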
YopH inh = YopH tyrosine phosphatase inhibitors, primary screen, biochemical, fluorescence Ex485/Em525; YopH tyrosine phosphatase [Yersinia enterocolitica]; inhibition, %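 (about 10 µM by stock and volumes)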; 0.16% of 140,000 active;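 active = inhibition of 50% or more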;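 note: controls were vehicle for no effect and minimum signal wells for full effect; inactives centre near -20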
Mtb growth = M. tuberculosis H37Rv growth inhibitors, H37Rv strain (AID 1626); inhibition, % at 10 µM; hits with a dose series show IC50 in µM; 0.95% of 220,000 active; M. tuberculosis H37Rv growth inhibition; higher % means a stronger effect;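 active = confirmed in a dose series; inconclusive = inhibition above 80% but not taken into the dose series; inactive = below 80% or under 30% at every dose of the series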;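 note: bacteria incubated seven days before Alamar blue readout; 0% = bacteria only wells and 100% = bacteria with antibiotic wells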
Arbovirus inh = antivirals against arbovirus infection, primary screen, cell-based, full library, 10K replicate subset | arbovirus infection cell-based antiviral screen | inhibition, % at 10 µM | 0.37% of 200,000 active | AID 1251, 2008;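 active = inhibition from about 30%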;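 note: bluetongue infection of BSR cells; cell survival read as ATP light after 72 h; 0% = infected wells without compound and 100% = uninfected wells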
RecA intein inh = Mtb RecA intein splicing inhibitors, primary screen, biochemical, fluorescence, HTS. inhibition, %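 (about 9 µM by stock and volumes)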. cell-free RecA intein splicing. Protein RecA (Mycobacterium tuberculosis (strain ATCC 25618 / H37Rv)), P9WHJ3. 0.75% of 290,000 active. AID 2221, 2009; in the data active = inhibition above about 30%; inconclusive = no clear call, values can overlap the other calls;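 note: 0% = vehicle wells and 100% = reference inhibitor control wells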
Target sequence (P9WHJ3 whole entry, looked up): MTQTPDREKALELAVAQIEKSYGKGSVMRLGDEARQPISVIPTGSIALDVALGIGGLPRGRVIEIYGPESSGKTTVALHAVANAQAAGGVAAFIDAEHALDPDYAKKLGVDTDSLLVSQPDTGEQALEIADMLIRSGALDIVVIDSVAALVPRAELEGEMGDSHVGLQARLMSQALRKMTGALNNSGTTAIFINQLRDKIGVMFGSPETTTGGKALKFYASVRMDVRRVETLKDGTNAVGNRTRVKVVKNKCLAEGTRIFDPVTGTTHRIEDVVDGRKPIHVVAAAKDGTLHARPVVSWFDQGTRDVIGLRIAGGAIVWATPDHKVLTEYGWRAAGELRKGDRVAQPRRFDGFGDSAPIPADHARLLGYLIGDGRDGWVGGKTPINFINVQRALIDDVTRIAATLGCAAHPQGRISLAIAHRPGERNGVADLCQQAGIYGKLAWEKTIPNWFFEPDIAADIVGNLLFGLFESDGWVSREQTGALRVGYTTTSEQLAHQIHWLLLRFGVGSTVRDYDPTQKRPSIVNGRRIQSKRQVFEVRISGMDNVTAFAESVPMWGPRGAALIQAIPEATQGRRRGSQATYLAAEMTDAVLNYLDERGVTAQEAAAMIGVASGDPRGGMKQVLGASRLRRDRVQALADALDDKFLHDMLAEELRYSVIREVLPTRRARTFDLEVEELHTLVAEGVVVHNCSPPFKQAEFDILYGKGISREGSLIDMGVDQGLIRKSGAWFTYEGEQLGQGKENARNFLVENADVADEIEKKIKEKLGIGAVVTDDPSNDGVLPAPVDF
Arbovirus inh repeat = second read-out of Arbovirus inh, no call of its own (marks repeat the call); inhibition, %; measured here: 10K subset replicate screen; many hits read low in the repeat;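 first of two repeat runs on a subset; 0% = infected and 100% = uninfected wells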
Active calls of the source: *; ? = inconclusive; . = no result given; & = joins results of further samples. The list is partial; the hit share may differ from the screen's.

SMILES	Mtb bLac sens	YopH inh	Mtb growth	Arbovirus inh	RecA intein inh	others
CC(C)NC(=O)[C@H]1N2C(=O)c3ccccc3C2SC1(C)C (some centres undefined)	-12	.	.	.	-1.0
Cn1c(SCC(=O)N2CCCCC2)nc2c([nH]c3ccccc32)c1=O	3	-33	8%	0	3.9	Arbovirus inh repeat=-5
Cc1cccc(N/N=C/c2ccncc2)c1	93	.	.	.	0.2
CC(C)(C)N1C(=O)c2ccc(C(=O)Nc3cc(C(=O)O)cc(C(=O)O)c3)cc2C1=O	-2	.	.	.	-3.4
CCOc1ccc(-c2nc(-c3ccccc3)no2)cc1OCC	78	.	14%	11	3.6	Arbovirus inh repeat=6
NC(=O)Nc1cccc2ccccc12	5	-9	1%	-6	2.1
Cc1cc(C)n2cc(CSc3nc4cc(Cl)ccc4o3)nc2n1	-16	-13	-1%	7	-5.8
CCNC(=O)c1ccc(NC(=O)CC2SC(N3CCCC3)=NC2=O)cc1 (centres undefined)	-6	.	.	.	0.3
Cc1ccc(S(=O)(=O)NCC(=O)OC2CCOC2=O)cc1 (centres undefined)	-17	-43	-9%	2	2.2
CCOC(=O)c1cccc(NC(=O)c2c(N)n(C)c(=O)[nH]c2=O)c1	0	.	6%	.	-3.3
CC(C)(C)/C(O)=C(/C#N)c1nc2ccccc2[nH]1	7	-24	3%	-4	1.4
Cc1ccc(S(=O)(=O)N2CCN(C(=O)CC(C)C)CC2)cc1	-5	.	8%	12	2.6

Random excerpt: three records from the list
SMILES	Mtb bLac sens	YopH inh	Mtb growth	Arbovirus inh	RecA intein inh	others
CCOC(=O)c1cccc(NC(=O)c2c(N)n(C)c(=O)[nH]c2=O)c1	0	.	6%	.	-3.3
CC(C)NC(=O)[C@H]1N2C(=O)c3ccccc3C2SC1(C)C (some centres undefined)	-12	.	.	.	-1.0
CC(C)(C)/C(O)=C(/C#N)c1nc2ccccc2[nH]1	7	-24	3%	-4	1.4

(list continues)
SMILES	Mtb bLac sens	YopH inh	Mtb growth	Arbovirus inh	RecA intein inh	others
COc1ccc(-n2nc(C(=O)NCC(=O)NCC3COc4ccccc4O3)c3ccccc3c2=O)c(OC)c1 (centres undefined)	7	.	8%	2	0.3
Cc1ccccc1S(=O)(=O)Cc1ccc(C(=O)NCCCN2CCC(C)CC2)o1	-5	.	.	.	0.4
O=C(NCCCNC(=O)c1c(Cl)cccc1Cl)c1c(Cl)cccc1Cl	-7	.	.	.	1.5
Brc1ccc(-c2csc3ncnc(-n4nnc5ccccc54)c23)cc1	2	-25	-3%	-1	-1.0
CC(C)N(Cc1ccccc1)C(=O)COC(=O)c1ccc2c(c1)OCCO2	-6	-19	-4%	11	.
O=C(COc1ccc(C(=O)NCCN2CCOCC2)cc1)Nc1cccc(C(F)(F)F)c1	0	.	.	.	-0.3
COc1cc(C(=O)N(Cc2ccccc2)c2cccc(C)c2)ccc1OC(F)F	4	.	.	.	0.0
COc1ccc(-c2cc(=NCC(=O)O)c3ccccc3o2)cc1	3	.	.	.	-80
CCOC(=O)C(Cc1ccc(NC(=O)/C(=C\c2ccccc2)NC(=O)c2ccccc2)cc1)N1C(=O)c2ccccc2C1=O (centres undefined)	13	-21	20%	-38	-0.7
COCCCC/C(=N\OCCN)c1ccc(C(F)(F)F)cc1	-5&-5&1&7	-15	-6%&-7%&0%&-2%	-12&-12	-0.9&0.1&-2.4
CC1CN(c2oc(COc3ccc(Cl)cc3Cl)nc2C#N)CC(C)O1 (centres undefined)	-15	-26	5%	6	3.6
CC(C)CNC(=O)NC(=O)COC(=O)c1cc(F)cc(F)c1	-2	-39	-1%	4	-1.0
COC(=O)c1nn(Cc2ccccc2)c(=O)c2ccccc12	-2	-14	-4%	18	2.2
CCCC(c1nnnn1CCOC)N1CCN(c2nc3ccccc3s2)CC1 (centres undefined)	-10	.	-2%	17	-1.2
O=c1oc2ccccc2c(Nc2cccc3ccccc23)c1[N+](=O)[O-]	47	-43	20%	16	0.4
CCCOc1ccc(/C=N/Nc2cccc([N+](=O)[O-])c2)c(O)c1	15	-23	?	0	4.6
C=CCNC(=O)c1ccc2c(=O)n(Cc3ccccc3OC)c(=S)[nH]c2c1	5	.	.	.	-0.4
CCCCCCC(Cl)(Cn1ccnc1)c1ccccc1 (centres undefined)	-5	.	.	.	2.1
CCOC(=O)c1cnn(-c2ccc([N+](=O)[O-])cc2)c1N	-2	.	1%	.	-6.3
O=C(O)c1cc([N+](=O)[O-])c(NCCC2=CCCCC2)c([N+](=O)[O-])c1	7	.	9%	15	-1.4
CCOC(=O)c1sc(NC(=O)c2cccc(S(=O)(=O)N3CCN(C)CC3)c2)cc1C	80	-46	79%	-31	-1.1
Cc1cnc(C(=O)OCC(=O)Nc2cc(S(=O)(=O)N3CCCCC3)ccc2Cl)cn1	0	-10	17%	8	1.3
CCCNC(=O)CCCN1C(=O)c2ccccc2Sc2ncccc21	-1	.	.	.	1.2
O=C(Nc1ccccc1-c1ccccc1NC(=O)c1ccco1)c1ccco1	0	-26	2%	-8	-1.1

Reprinted from the listing, 3 compounds:
SMILES	Mtb bLac sens	YopH inh	Mtb growth	Arbovirus inh	RecA intein inh	others
Cc1cnc(C(=O)OCC(=O)Nc2cc(S(=O)(=O)N3CCCCC3)ccc2Cl)cn1	0	-10	17%	8	1.3
CCCNC(=O)CCCN1C(=O)c2ccccc2Sc2ncccc21	-1	.	.	.	1.2
O=C(Nc1ccccc1-c1ccccc1NC(=O)c1ccco1)c1ccco1	0	-26	2%	-8	-1.1

(continued)
SMILES	Mtb bLac sens	YopH inh	Mtb growth	Arbovirus inh	RecA intein inh	others
CN(CCc1ccccn1)C(=O)c1cc(COc2ccc(F)cc2F)on1	?	.	.	.	-2.4
CC(=O)N1c2ccc(S(=O)(=O)NCC3CCC(C(=O)NC4CCC(C)CC4)CC3)cc2CC1C (centres undefined)	6	.	.	.	1.6
Nn1c(C2COc3ccccc3O2)n[nH]c1=S (centres undefined)	1	.	-16%	.	6.4
N#Cc1ccc(NC(=O)Nc2ccc(Oc3ccc(NC(=O)Nc4ccc(C#N)cc4)cc3)cc2)cc1	-5	.	7%	.	1.1
Cc1ccc(NC(=O)C(C)SCc2nc3sc(C)c(C)c3c(=O)[nH]2)nc1 (centres undefined)	-17	.	.	.	-3.5
Oc1ccc2ccccc2c1C=Nc1cc(C(F)(F)F)ccc1N1CCCC1	5	-27	-3%	28	0.8
Cc1ccc(-c2[nH]ncc2/C=N/n2c(C)nc3ccccc3c2=O)cc1	6	.	-3%	.	4.1
Cc1n[nH]c(=O)nc1N1CCN(c2ccccc2)CC1	0	-35	-7%	-3	-1.3
Cc1nc2c(Br)cc(Br)cc2cc1O	46	-9	14%	25	1.5
CCCCN1CC[C@H]2C=CC[C@@H](C(=O)N3CCN(c4ccccc4)CC3)[C@H]2C1=O	-1	.	-8%	.	-1.0
FC(F)Oc1ccc(-n2cc(-c3ccc(Cl)cc3)[n+]3c2CCCCC3)cc1	-7	.	6%	.	1.8
CCn1c2ccccc2c2cc(NC(=O)COc3ccc(OC)cc3)ccc21	-10	-27	-1%	1	0.5

Of the compounds above, two have a tert-butyl group.
SMILES	Mtb bLac sens	YopH inh	Mtb growth	Arbovirus inh	RecA intein inh	others
CC(C)(C)N1C(=O)c2ccc(C(=O)Nc3cc(C(=O)O)cc(C(=O)O)c3)cc2C1=O	-2	.	.	.	-3.4
CC(C)(C)/C(O)=C(/C#N)c1nc2ccccc2[nH]1	7	-24	3%	-4	1.4

Entries listed so far with two or more sulfur atoms:
SMILES	Mtb bLac sens	YopH inh	Mtb growth	Arbovirus inh	RecA intein inh	others
CCOC(=O)c1sc(NC(=O)c2cccc(S(=O)(=O)N3CCN(C)CC3)c2)cc1C	80	-46	79%	-31	-1.1
Cc1ccc(NC(=O)C(C)SCc2nc3sc(C)c(C)c3c(=O)[nH]2)nc1 (centres undefined)	-17	.	.	.	-3.5

Continuation.
SMILES	Mtb bLac sens	YopH inh	Mtb growth	Arbovirus inh	RecA intein inh	others
COc1ccccc1OCc1ccc(C(=O)NCC2CCCO2)o1 (centres undefined)	-13	3	-7%	-2	0.7
c1ccc2[nH]c(NCCCN3CCOCC3)nc2c1	0	-19	-3%	1	-1.6
CCc1ccc(CN(C)C(=O)C2CCC(=O)N(Cc3cccc(OC)c3)C2)nc1 (centres undefined)	-6	.	.	.	-0.2
O=C(COC(=O)c1ccc(Cl)nc1)NCc1cccs1	0	.	-4%	7	1.0
Cc1oc(-c2ccc(Cl)cc2)cc1C(=O)/C(C#N)=C/Nc1ccccc1	-4	.	6%	.	.
Cc1cc(C(=O)NNC(=O)CCCOc2ccccc2)c(C)o1	-1	.	.	.	0.6
O=c1cc(CSc2nnc(-c3cccnc3)n2-c2ccccc2F)nc2sccn12	-5	-44	-5%	4	-5.7
O=C(NCCCN1CCOCC1)C(=O)NCC1CCCO1 (centres undefined)	1	-22	1%	3	-1.9
Cc1ccc(OCc2nnc(SCc3cc(=O)[nH]c4ccccc34)n2-c2ccccc2)cc1	63	1	28µM*	-8	7.9
COc1ccc(C(=O)c2c3ccccc3[n+]([O-])n2CCC(N)=O)cc1	1	.	.	.	1.4
Cc1ccc(/C=N/NC(=O)CN2CCN(Cc3ccccc3)CC2)o1	-5	.	-2%	.	-2.4
COC(=O)Cn1c(O)c(N=NC(=O)c2ccc3c(c2)OCO3)c2ccccc21	-1	.	3%	-9	1.4
Cc1cc(NC(=O)c2sc3ccccc3c2O)no1	11	.	.	.	-39
Cc1cc2c(n1-c1ccc(Cl)cc1)CC(C)(C)CC2=O	14	4	-6%	-3	1.9
Cc1ccccc1NC(=O)Cc1nnc(SCC(=O)N2CCN(c3ccccc3)CC2)n1C	-11	5	-5%	-3	-1.0
O=C(CN1C(=O)C2C3C=CC(C3)C2C1=O)Nc1cccc(S(=O)(=O)N2CCCC2)c1 (centres undefined)	16	-31	-2%	6	-5.2
O=S(=O)(Nc1cc(Cl)cc(Cl)c1)N1CCOCC1	-8	.	.	.	1.7
Cc1ccc2cccc(Oc3ncnc4scc(-c5ccc(Cl)cc5)c34)c2n1	64	-19	50%	3	-5.1
CCc1ccccc1C1C(=O)c2ccccc2C1=O	100	.	.	.	2.6
CCOC(=O)Cn1c(=O)oc2cc(S(=O)(=O)Nc3ccc(F)cc3)ccc21	0	-6	0%	0	-0.6	Arbovirus inh repeat=9
Cc1cccnc1NC(=O)c1ccc(COc2ccccc2)o1	-2	.	.	.	-1.6
COc1ccc(OC)c2[nH]c(=O)c(CCNC(=O)c3ccc(S(=O)(=O)N4CCCC4)cc3)cc12	-5	-13	.	-1	-4.5
COc1ccc(NC(=S)N2CCC(C(=O)N3CCCCCC3)CC2)cc1	6	-5	-4%	3	.
Cc1cccc(S(=O)(=O)Nc2ccc(-n3c(C)nc4ccccc4c3=O)cc2)c1	-7	.	.	.	3.9
Cc1ccc2[nH]c(=O)c(CN(Cc3cccs3)C(=S)NCc3ccco3)cc2c1	1	-13	11%	6	1.9
N#Cc1sc2nc(-c3cccs3)cc(-c3ccc(Cl)cc3)c2c1N	?	-43	-1%	2	-5.2
COC(=O)C1CCN(S(=O)(=O)Cc2ccccc2)CC1	2	-14	4%	1	0.1
O=C(COC(=O)/C=C/c1ccc(Cl)cc1Cl)NCc1ccco1	0	.	0%	5	0.1
COc1ccc(NC(=O)CCN2C(=O)C3C4CCC(C4)C3C2=O)cc1 (centres undefined)	6	-5	11%	0	2.5
Cc1cccc(-n2nnc(C(=O)NCc3ccccc3Cl)c2N)c1	-9	.	-4%	-4	14
CCN1CCN(C(=O)CS(=O)(=O)Cc2nc(-c3ccccc3C)oc2C)CC1	4	.	.	.	0.9
Cc1ccccc1NCCC(=O)Nc1ccc(Cl)cc1	-1	.	.	.	3.1
